# StopGo reporter = High Throughput Screening for Foot and Mouth Disease Virus Antivirals. hit rate 1.2% among 410,000. AID 1159524, 2015. human cells with a luciferase reporter of 2A StopGo recoding; control for the full effect not named in the record. Potency, µM (top dose mostly 57.9 µM), inactives show at the top dose signal change, negative = less light; active = well fitted falling curve with a large enough effect; inconclusive = small, poorly fitted or top-dose-only effect; inactive = no such curve, though single readings can be large or run the other way; tested in HEK293T cells; further: on the % scale 0 is the no-effect control and ±100 the full control effect; nearly all actives have a fitted effect of over 45% in size; luciferase light after 4 h
# MARV entry inh = qHTS for inhibitors of binding or entry into cells for Marburg Virus; Marburg virus pseudotyped entry inhibition, cell reporter; control for the full effect not named in the record; about a third of the inactives were read at about 46 µM; hit rate 1.8% among 300,000; Potency, µM (highest dose often 37.8 µM), inactives show at the highest dose activity change, negative = inhibition, most hits filed as inhibitors; AID 540276, 2011; active = well fitted inhibition curve with a large enough effect; inconclusive = small, poorly fitted or top-dose-only effect, or effect the other way; inactive = flat fitted curve, though single readings scatter; tested in HEK293 cells; about a fifth of its hits are not listed in these tables; further: on the % scale 0 is the no-effect control and ±100 the full control effect; luciferase read-out
# NS1 function inh = qHTS Assay for Inhibitors of Influenza NS1 Protein Function; Potency, µM (series often up to 46.1 µM), for inactives: at the top dose activity, positive = more growth; hit rate 0.4% among 270,000; S. cerevisiae slowed by influenza A NS1, growth recovery by OD600; active means well fitted rising curve with a large enough effect; inconclusive means small, poorly fitted or top-dose-only effect; inactive means no such curve, though single readings can be large or run the other way; further: nearly all actives have a fitted effect of over 50% in size
#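 Recovery from NS1-induced slow growth read by OD600 in budding yeast switched to galactose assay medium (pH 6.0, -URA) at 1:100 dilution. Compound 23 nl per well; the matching strain lacking NS1 serves as control.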
# RE007 growth inh = qHTS Assay for Inhibitors of the HIV-1 protein Vpr. S. pombe RE007 Vpr strain, BacTiter-Glo ATP luminescence, 24 h; control for the full effect not named in the record. Potency, µM (series often up to 92.2 µM), inactives show at the highest dose activity change, negative = less growth. hit rate 0.21% among 360,000. AID 651644, 2012; active = well fitted falling curve with a large enough effect; inconclusive = small, poorly fitted or top-dose-only effect; inactive = no such curve, though single readings can be large or run the other way;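 further: on the % scale 0 is the no-effect control and ±100 the full control effect; nearly all actives have a fitted effect of over 50% in size; the assay follows cell death caused by Vpr and the record does not say whether a fall means rescue or toxicity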
#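 Fission yeast RE007 carrying one integrated HIV-1 vpr copy, seeded at OD 0.01 in PMG+AL medium with 23 nL pinned compound. Grown 24 h at 30 degrees; viability read by BacTiter-Glo luminescence after 5 min.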
# Cruzain noTriton = qHTS Assay for Promiscuous and Specific Inhibitors of Cruzain (without detergent); purified cruzain, Z-FR-AMC fluorescence, no detergent; Potency, µM, for the others: max response, negative = inhibition, actives largely listed as inhibitors; hit rate 2.3% among 200,000; AID 1476, 2009; Cruzipain (Trypanosoma cruzi), P25779;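 further: plate controls were enzyme without inhibitor for no effect and buffer without enzyme for full effect; nearly all actives have a fitted effect of over 40% in size; top concentration of the series not given in the record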
# Target sequence (P25779 123-467 limits assumed): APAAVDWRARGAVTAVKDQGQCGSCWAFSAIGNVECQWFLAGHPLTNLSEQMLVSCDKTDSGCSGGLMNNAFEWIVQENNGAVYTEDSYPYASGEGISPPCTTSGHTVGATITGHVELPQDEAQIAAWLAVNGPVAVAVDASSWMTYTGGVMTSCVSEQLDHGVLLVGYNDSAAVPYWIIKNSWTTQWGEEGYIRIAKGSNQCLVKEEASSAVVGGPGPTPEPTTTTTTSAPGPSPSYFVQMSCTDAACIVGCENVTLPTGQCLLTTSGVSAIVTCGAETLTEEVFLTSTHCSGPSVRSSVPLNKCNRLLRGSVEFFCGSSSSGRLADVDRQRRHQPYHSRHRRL
#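 Purified cruzain at 1.5 nM, pre-incubated 15 min with compound at room temperature in 100 mM sodium acetate pH 5.5, 5 mM DTT, 0.00005% Triton X-100. Reaction started with 2 uM Z-FR-AMC; AMC fluorescence increase over 60 s gives rate.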
# SARS PLpro yeast = qHTS of Yeast-based Assay for SARS-CoV PLP. hit rate 0.19% among 330,000. S. cerevisiae expressing SARS-CoV PLpro, growth rescue; control for the full effect not named in the record. Potency, µM (highest dose often 32.9 µM), without a hit: at the highest dose activity, positive = growth rescue; active means well fitted rising curve with a large enough effect; inconclusive means small, poorly fitted or top-dose-only effect; inactive means no such curve, though single readings can be large or run the other way; further: 0% is about no effect; nearly all actives have a fitted effect of over 55% in size; growth read by luminescence after 48 h
# Lassa entry inh = qHTS for Inhibitors of binding or entry into cells for Lassa Virus | Lassa virus pseudotype entry inhibition, cell reporter; control for the full effect not named in the record | Potency, µM (doses to about 37.9 µM), for the others: at the top dose activity change, negative = inhibition, actives largely listed as inhibitors | hit rate 1.2% among 300,000; active means well fitted inhibition curve with a large enough effect; inconclusive means small, poorly fitted or top-dose-only effect, or effect the other way; inactive means flat fitted curve, though single readings scatter; tested in HEK293 cells; further: on the % scale 0 is the no-effect control and ±100 the full control effect; nearly all actives have a fitted effect of over 50% in size; luciferase read-out
# Cruzain Triton = qHTS Assay for Promiscuous and Specific Inhibitors of Cruzain (with detergent). hit rate 0.43% among 200,000. Cruzipain (Trypanosoma cruzi), P25779. Potency, µM, for the others: max response, negative = inhibition, actives largely listed as inhibitors. purified cruzain, Z-FR-AMC fluorescence, 0.01% Triton;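 further: plate controls were neutral wells for no effect and buffer without enzyme for full effect; nearly all actives have a fitted effect of over 40% in size; top concentration of the series not given in the record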
#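 Steps: dispense cruzain (1.5 nM final) in acetate buffer pH 5.5 with DTT and 0.01% Triton X-100; pin-transfer compounds; incubate 15 min RT; add Z-FR-AMC (2 uM final); read fluorescence every 30 s, using the 60 s intensity change.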
# * hit, by the source's call; ? = inconclusive; nt = not tested or not shown; & = joins results of further samples; [ ] = another dose, or the depositor's remark. Unless noted, the call rests on the fitted dose curve; in most records, active means well fitted curve in the direction sought with a large enough effect; inconclusive means small, poorly fitted or top-dose-only effect, or another doubt; inactive means no such curve, though single readings can be large; an effect the other way counts as inactive or inconclusive. Potency means the concentration at half of the fitted maximal effect.
SMILES,StopGo reporter,MARV entry inh,NS1 function inh,RE007 growth inh,Cruzain noTriton,SARS PLpro yeast,Lassa entry inh,Cruzain Triton
CC1=C(C(=O)OCC(C)C)C(c2ccccc2Cl)NC(=O)N1C (stereo unspecified),-26%,nt,-126%,-3%,2%,7%,nt,-5.2%
O=c1c2c3c(sc2n(Cc2ccccc2F)c(=O)n1-c1ccc(Cl)cc1)CCCC3,-13%,-1%[46.1 µM],nt,nt,15%,nt,-19%[46.1 µM],-3.9%
COC(=O)c1c(NC(=O)c2cc(OC)c(OC)c(OC)c2Br)sc2c1CCC(C)C2 (stereo unspecified),-16%,8%[46.1 µM],nt,nt,-10%,nt,2%[46.1 µM],-2.4%
O=C(CCN1C(=O)c2ccccc2S1(=O)=O)N1CCN(c2ccccc2F)CC1,-1%,-15%[46.1 µM],nt,7%,nt,-2%,2%,nt
COc1ccc(C(=O)c2ccc(Br)cc2)cc1,45%[activator],7%,6%,12%,?,4%,?,-0.4%
c1csc(C2=NC(c3ccncc3)=Nc3ccccc3N2)c1,-16%,?,nt,nt,16%,nt,-2%[46.1 µM],2.5%
O=c1[nH]c(NCc2ccco2)nnc1Cc1ccccc1Cl,37%[activator],-30%,0%,-18%,-4%,nt,-5%,1.7%
Cc1nc2cc(NC(=O)Nc3ccc(Br)cc3)ccc2o1,9%,?,-8%,-14%,nt,0%,?,nt
C=CCn1c(O)c(C(CC)=NCCc2ccccc2)c(=O)[nH]c1=O,-21%,6%,0%,19%[3.69 µM],-1%,-7%,-12%,-1.4%
Cc1[nH]n(-c2ccccc2)c(=O)c1/C=N/NC(=O)c1ccoc1C,-11%,?,-22%,2%,10%,2.5µM*,-27%,3.3%
O=C(CSc1ccc(-c2ccc(Cl)cc2)nn1)Nc1ccc2c(c1)OCCO2,12%,2%,5%,1%,7%,-14%,-7%,?
CCn1c(C)c(C(C)=O)c(N2CCCC2)nc1=S,0%,-3%,7%,-2%,5%,-2%,?,2.0%
Nc1c(C(=O)Nc2ccc3c(c2)OCCO3)nnn1CCc1ccccc1,46%[activator],-2%,-10%,-3%,0%,-5%,nt,-2.9%
Cc1cc(N2CCN(c3cccc(C)c3C)CC2)n2cnnc2n1,?,?,nt,nt,-6%,nt,-29%[46.1 µM],9.3%
COc1ccc(-n2c(SCC(=O)N3CCCC(C)C3)nnc2-c2cccnc2)cc1 (stereo unspecified),-20%,?,-5%,15%,11%,-2%,0%,0.8%
COc1ccc2c(c1)c(=O)c(S(=O)(=O)c1ccc(C)cc1)cn2Cc1ccccc1C,-4%,?,nt,nt,-20%,nt,?,-6.0%
Nc1ccccc1N=Nc1ccccc1N,26%,nt,-53%,?,nt,-15%,nt,nt
CN1C(=O)/C(=C/c2cccc(Cl)c2)Sc2ccc(C(=O)N3CCCC3)cc21,-6%,nt,-40%,1%,nt,-6%,nt,nt
Cc1cc(NC(=O)CN2CCN(c3ccccn3)CC2)ccc1Br,-5%,nt,-8%,-9%,nt,-1%,nt,nt
O=C(Nc1ccc(N2CCN(CCOc3ccc(Cl)cc3)CC2)c(C(=O)O)c1)c1ccc(F)cc1,-17%,nt,nt,nt,?,nt,26%[46.1 µM],2.6%
COC(=O)C(C)N1C(=O)S/C(=C\c2cc(C)n(-c3ccccn3)c2C)C1=O (stereo unspecified),-15%,?,2%,-9%,20%,4%,?,-6.0%
O=C(CSc1nnc(Cn2c(=O)sc3ccccc32)n1-c1ccccc1)N1CCCC1,-5%,nt,-1%,-4%,1%,?,nt,-3.2%
CCOC(=O)c1c(-c2ccccc2)csc1NC(=S)NC,0%,4%,7%,10%,-3%,7%,0%,-14%
Cc1ccc(CNC(=O)CCc2nc(-c3cccs3)no2)cc1,2%,nt,-67%,-7%,-13%,-11%,nt,0.8%
Cc1c(C(=O)NC(C)c2ccncc2)oc2ccccc12 (stereo unspecified),-13%,9%,-1%,7%,-1%,2%,0%,-6.9%
O=C1C(C=Nc2ccc(F)cc2)=C(O)c2ccccc21,-52%,9%[46.1 µM],-2%,4%,nt,-1%,?,nt
Fc1ccc(C2=NC(c3cccc(C(F)(F)F)c3)=Nc3ccccc3N2)cc1,-9%,?,nt,nt,?,nt,?,-8.9%
Cc1cc2oc(C(=O)Nc3ccc(S(=O)(=O)N4CCCC(C)C4)cc3)cc(=O)c2cc1Cl (stereo unspecified),0%,11µM*,3%,5%,1%,-22%,?,-1.0%
COc1ccccc1NCC(=O)N/N=C/c1cccnc1,-7%,-7%,3.2µM*,6%,-7%,0%,-23%[14.3 µM],0.0%
COc1ccc(C2C3=C(CC(C)(C)CC3=O)OC(N)=C2[N+](=O)[O-])cc1 (stereo unspecified),-10%,2%,-7%,-13%,12%,15%,-3%,-3.7%
O=C(Nc1nc(-c2ccc(Oc3ccccc3)cc2)cs1)C1=COCCO1,?,?,4%,nt,?,-13%,?,-1.7%
COc1ccccc1-n1c(-c2ccccc2)nc2ccccc2c1=O,-7%,-9%,-8%,10%,nt,-3%,-6%,nt
COc1cccc(C(=O)CC2(O)C(=O)N(Cc3ccccc3)c3ccccc32)c1 (stereo unspecified),-15%,-26%[46.1 µM],nt,nt,-6%,nt,4%[46.1 µM],-9.6%
CCC1Sc2ccccc2N(CC(=O)NCc2ccc(C)cc2)C1=O (stereo unspecified),-4%,nt,nt,nt,3%,nt,?,1.0%
CCOC(=O)C1=C(C)NC(C)=C(C(=O)OCC)C1C(=O)OCC(=O)NC1(C#N)CCCCC1,-10%,?,nt,-3%,nt,4%,-14%,nt
O=C(CCN1C(=O)c2ccccc2C1=O)N1CCCCCC1,17%,9%[46.1 µM],1%,-1%,-12%,1%,1%,-2.4%
Cc1ccc(NC(=O)c2cc(NC(=O)CCCC(=O)O)ccc2Cl)cc1Cl,-5%,-1%,?,-5%,?,6%,26%,-5.0%
COc1ccc(NS(=O)(=O)c2ccc3c(c2)NC(=O)CC(=O)N3)cc1OC,-1%,-3%[46.1 µM],-5%,12%,nt,-1%,-4%[46.1 µM],nt
CCCCn1cnc2cc(NCc3ccc(OCC)cc3)ccc21,-10%,-19%[46.1 µM],nt,nt,-1%,nt,?,-6.0%
Cc1ccc(N=Nc2[nH]c3ccccc3c2O)cc1,33%[activator],?,-3%,0%,-20%,-2%,?,-8.2%
COc1ccccc1OCC#CCNC1CCCCC1C (stereo unspecified),-11%,-19%&-19%,-5%,-19%,nt,0%,28%,nt
COc1ccc(C(C)(C)C)cc1NC(=O)C1CCCO1 (stereo unspecified),6%,nt,-5%,-11%,nt,4%,nt,nt
CCn1nnnc1-c1ccc(OC)c(S(=O)(=O)Nc2ccc(OC)cc2)c1,26%,-1%,1%,-2%,-21%,1%,4%,5.4%
COc1ccccc1-n1ccnc1SCC(=O)NCc1ccco1,-2%,11%[46.1 µM],nt,-9%,nt,1%,nt,nt
COC(=O)CN1C(=S)N(c2ccc(OC)cc2)C(=O)/C1=C/c1ccc(OC)cc1,-19%,2%[46.1 µM],-2%,0%,nt,-1%,?,nt
O=C(NCCO)NC(=S)c1ccccc1,-6%,8%,4%,9%,-4%,4%,6%,3.2%
CN(C)c1ccc(/C=N\S(=O)(=O)c2ccccc2)cc1,-7%,?,-56%,6%,-6%,2%,-11%,-3.4%
COC(=O)c1ccccc1NC(=O)C1CCN(S(=O)(=O)c2cc(OC)ccc2OC)CC1,-18%,-13%,-10%,13%,?,2%,?,2.1%
Cn1c(=O)[nH]c(=O)c2c1nc(CN1CCOCC1)n2CCc1ccccc1,nt,-1%,1%,6%,1%,15%,2%,-0.7%

# Of the compounds above, these contain a Cl atom.
SMILES,StopGo reporter,MARV entry inh,NS1 function inh,RE007 growth inh,Cruzain noTriton,SARS PLpro yeast,Lassa entry inh,Cruzain Triton
CC1=C(C(=O)OCC(C)C)C(c2ccccc2Cl)NC(=O)N1C (stereo unspecified),-26%,nt,-126%,-3%,2%,7%,nt,-5.2%
O=c1c2c3c(sc2n(Cc2ccccc2F)c(=O)n1-c1ccc(Cl)cc1)CCCC3,-13%,-1%[46.1 µM],nt,nt,15%,nt,-19%[46.1 µM],-3.9%
O=c1[nH]c(NCc2ccco2)nnc1Cc1ccccc1Cl,37%[activator],-30%,0%,-18%,-4%,nt,-5%,1.7%
O=C(CSc1ccc(-c2ccc(Cl)cc2)nn1)Nc1ccc2c(c1)OCCO2,12%,2%,5%,1%,7%,-14%,-7%,?
CN1C(=O)/C(=C/c2cccc(Cl)c2)Sc2ccc(C(=O)N3CCCC3)cc21,-6%,nt,-40%,1%,nt,-6%,nt,nt
O=C(Nc1ccc(N2CCN(CCOc3ccc(Cl)cc3)CC2)c(C(=O)O)c1)c1ccc(F)cc1,-17%,nt,nt,nt,?,nt,26%[46.1 µM],2.6%
Cc1cc2oc(C(=O)Nc3ccc(S(=O)(=O)N4CCCC(C)C4)cc3)cc(=O)c2cc1Cl (stereo unspecified),0%,11µM*,3%,5%,1%,-22%,?,-1.0%
Cc1ccc(NC(=O)c2cc(NC(=O)CCCC(=O)O)ccc2Cl)cc1Cl,-5%,-1%,?,-5%,?,6%,26%,-5.0%
